# CBX7 AlphaScr – CBX7 inhibition, primary AlphaScreen; O95931; AlphaScreen His6-CBX7 / biotin-H3K27me3 peptide binding; active compounds read low; normalised signal (fraction of DMSO) (concentration not given with the values); hit rate 1.1% among 66,000; in the data active = normalised signal below about 0.5;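 note: 100 nL library stock added to about 20 µL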
# Target sequence (O95931 whole entry, looked up): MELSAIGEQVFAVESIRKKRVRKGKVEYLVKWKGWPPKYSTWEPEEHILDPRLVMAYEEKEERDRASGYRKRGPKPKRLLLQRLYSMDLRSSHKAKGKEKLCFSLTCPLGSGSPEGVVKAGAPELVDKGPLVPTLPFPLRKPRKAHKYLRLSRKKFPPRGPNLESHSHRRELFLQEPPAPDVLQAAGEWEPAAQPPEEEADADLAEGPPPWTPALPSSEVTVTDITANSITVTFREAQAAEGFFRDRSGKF
# CBX7 AlphaScr z-score – recorded beside CBX7 AlphaScr, whose call it bears; z-score; measured here: z-score of CBX7 signal; some inactives read as strong as hits; reference of the scale not given here;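 same signal on another scale; lower means less binding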
# Starred values were filed as active, the others as inactive.
# The opening 17 records, to show the layout:
SMILES,CBX7 AlphaScr,CBX7 AlphaScr z-score
CCOc1ccc(Nc2cc(C(=O)NC(C)c3ccc4c(c3)OCCO4)c3ccccc3n2)cc1 (configuration not stated),0.921,-3.19
NS(=O)(=O)c1ccc(CNC2CC(=O)N(c3ccccc3F)C2=O)cc1 (configuration not stated),1.05,1.64
Cc1ccc2c(c1)c1c(n2CC(O)Cn2ccnc2C)C(=O)CCC1 (configuration not stated),0.757,-4.57
CCOc1ccc(-c2nc(SCC(=O)NC3CCCC3)c(-c3ccccc3)[nH]2)cc1OC,0.923,-1.31
Cc1cccc(-n2cnc3cc(C(=O)N4CCCCC4)ccc32)c1,0.902,-1.7
COc1ccc(-c2nc(CN3CCC(C(=O)NCc4ccccc4Cl)CC3)c(C)o2)cc1,1.09,1.26
COc1ccc(CNC(=O)c2cccc(NC3=NC4CS(=O)(=O)CC4S3)c2)cc1 (configuration not stated),0.981,-0.204
CC(C)Cn1cc(C(=O)Nc2ccccn2)c2c3ccccc3n(C)c2c1=O,0.967,-0.582
Cc1c(NC(=O)c2ccc(F)cc2)cccc1-c1nc2ncccc2o1,1.15,1.66
COCCCNC(=O)c1ccc2c(c1)N(Cc1ccccc1)CCS2,0.762,-0.316
CC(=O)NCCc1nc2ccccc2n1Cc1cc(C)ccc1C,1.09,0.676
COc1ccc(Nc2cc(C(=O)NCc3cccnc3)c3ccccc3n2)cc1OC,0.793,-2.46
Cc1nc2c(C(=O)NCc3cccs3)cnn2c(C)c1Cc1ccccc1,1.06,1.74
CC(C)(C)c1nnc(Nc2ccc(Nc3ccccc3)cc2)[nH]c1=O,1.01,0.303
Cn1c(C(=O)O)c(CC(=O)Nc2ccc3c(c2)OCCO3)c2ccccc21,0.932,-2.04
COCCCNC(=O)c1ccc2nc(C)c(C)nc2c1,1.12,1.53
Cc1cccc(N2CCN(C(=O)CS(=O)(=O)Cc3nc(-c4ccccc4C)oc3C)CC2C)c1 (configuration not stated),0.911,-2.33

# This part in full, repeating the preview:
SMILES,CBX7 AlphaScr,CBX7 AlphaScr z-score
CCOc1ccc(Nc2cc(C(=O)NC(C)c3ccc4c(c3)OCCO4)c3ccccc3n2)cc1 (configuration not stated),0.921,-3.19
NS(=O)(=O)c1ccc(CNC2CC(=O)N(c3ccccc3F)C2=O)cc1 (configuration not stated),1.05,1.64
Cc1ccc2c(c1)c1c(n2CC(O)Cn2ccnc2C)C(=O)CCC1 (configuration not stated),0.757,-4.57
CCOc1ccc(-c2nc(SCC(=O)NC3CCCC3)c(-c3ccccc3)[nH]2)cc1OC,0.923,-1.31
Cc1cccc(-n2cnc3cc(C(=O)N4CCCCC4)ccc32)c1,0.902,-1.7
COc1ccc(-c2nc(CN3CCC(C(=O)NCc4ccccc4Cl)CC3)c(C)o2)cc1,1.09,1.26
COc1ccc(CNC(=O)c2cccc(NC3=NC4CS(=O)(=O)CC4S3)c2)cc1 (configuration not stated),0.981,-0.204
CC(C)Cn1cc(C(=O)Nc2ccccn2)c2c3ccccc3n(C)c2c1=O,0.967,-0.582
Cc1c(NC(=O)c2ccc(F)cc2)cccc1-c1nc2ncccc2o1,1.15,1.66
COCCCNC(=O)c1ccc2c(c1)N(Cc1ccccc1)CCS2,0.762,-0.316
CC(=O)NCCc1nc2ccccc2n1Cc1cc(C)ccc1C,1.09,0.676
COc1ccc(Nc2cc(C(=O)NCc3cccnc3)c3ccccc3n2)cc1OC,0.793,-2.46
Cc1nc2c(C(=O)NCc3cccs3)cnn2c(C)c1Cc1ccccc1,1.06,1.74
CC(C)(C)c1nnc(Nc2ccc(Nc3ccccc3)cc2)[nH]c1=O,1.01,0.303
Cn1c(C(=O)O)c(CC(=O)Nc2ccc3c(c2)OCCO3)c2ccccc21,0.932,-2.04
COCCCNC(=O)c1ccc2nc(C)c(C)nc2c1,1.12,1.53
Cc1cccc(N2CCN(C(=O)CS(=O)(=O)Cc3nc(-c4ccccc4C)oc3C)CC2C)c1 (configuration not stated),0.911,-2.33
Cc1ccc(CNC(=O)c2ccc3c(c2)N(Cc2ccccc2)C(=O)c2ccccc2S3(=O)=O)cc1,1.03,0.875
COc1ccc(-c2cc(CCCC(=O)NCc3ccc(C)cc3)no2)cc1,0.938,-2.79
CC1CN(S(=O)(=O)c2cccc(-c3cn4ccccc4n3)c2)CC(C)O1 (configuration not stated),1.01,0.459
COc1cc(OC)cc(-c2nc3nc(C)c(CCC(=O)NCCCc4ccccc4)c(C)n3n2)c1,1.25,1.08
CCn1cc(CNC(=O)c2cc(-c3cc(OC)ccc3OC)nc3ccccc23)c(C)n1,1.01,0.145
CC(C)CCNC(=O)c1cn(C2CCCCC2)c(=O)c2c1c1ccccc1n2C,0.957,-1.07
COc1cccc(N2C(=O)CC(c3c[nH]c4ccccc34)C2=O)c1 (configuration not stated),0.896,-0.238
O=C(Cn1nc(-c2ccccc2)ccc1=O)NCCCN1CCN(Cc2ccccc2)CC1,1.01,0.153
# The list continues:
SMILES,CBX7 AlphaScr,CBX7 AlphaScr z-score
O=C(NCCN1CCC(Cc2ccccc2)CC1)c1cc(-c2cccnc2)nc2ccccc12,0.991,-0.171
O=C(Nc1nc(-c2ccc(Cl)cc2)cs1)c1cccc(Oc2ccccc2)c1,1.12,4.68
C=C(C)c1cccc(C(C)(C)NC(=O)NCCc2ccc(F)cc2)c1,0.954,-0.526
O=C1CCCC2=C1C(c1cccs1)CC(=O)N2c1ccc(Br)cc1F (configuration not stated),0.934,-0.643
c1ccc(Oc2nc(-c3ccncc3)nc3ccccc23)cc1,0.967,-0.118
Cc1ccc(S(=O)(=O)CCc2nnc(-c3ccccc3)o2)cc1C,1.19,1.39
C=CCNc1oc(COc2ccc(OC)cc2)nc1C#N,1.05,1.37
CN(Cc1ccccc1)c1oc(COc2ccc(Cl)cc2)nc1C#N,0.484*,-3.22*
Cc1c(C(=O)N(Cc2ccc(N(C)C)cc2)C2CCS(=O)(=O)C2)oc2ccccc12 (configuration not stated),0.795,-1.83
Cc1ccc(Cn2c(=O)c3cccnc3n(CC(=O)Nc3ccc(C)c(F)c3)c2=O)cc1,1,0.0575
COc1cc(C2C(=O)N(C3CCCCC3)CC(=O)N2CCC2=CCCCC2)ccc1OC(C)C (configuration not stated),0.948,-0.756
CCC(=O)N1CCc2cc(S(=O)(=O)NC(CC(C)C)C(=O)NCCc3ccccc3)ccc21 (configuration not stated),0.995,-0.202
COC(=O)c1ccc(Nc2cc(C)nc3ncnn23)cc1,0.866,-2.64
Cc1cccc(CSc2nc3ccncc3n2CC(=O)N(C)c2ccccc2)c1,0.834,-2.37
CCC(=O)N1CCc2cc(S(=O)(=O)NCCC(=O)Nc3ccc(C)c(F)c3)ccc21,1.12,1.78
O=C(Cn1ncc2c1-c1ccccc1OC2)NCCCN1CCCCCC1,1.08,2.08
COc1ccc(-c2nc3cc(C)ccn3c2Nc2ccc(C)cc2)cc1,1.03,0.245
Cc1cccc(N2CCN(C(=O)CN(C)S(=O)(=O)c3cccs3)CC2C)c1 (configuration not stated),0.969,-1.16
CCOCCCNC(=O)CN1C=NC2SC(C)=C(S(=O)(=O)N3CCC(C)CC3)C2C1=O (configuration not stated),1.08,0.0901
CCCCN(C)S(=O)(=O)c1ccc(C(=O)Nc2nnc(C)o2)cc1,0.00344*,-1.32*
CCc1ccc(-c2nc(C(=O)NCc3ccc(Cl)cc3)c(C)o2)cc1,0.938,-1.12
CCOc1ccc(OCC)c(NC(=O)C2CCN(S(=O)(=O)c3cccnc3)CC2)c1,1.02,0.765
CC(=O)Nc1ccc2oc(-c3cccc(C)c3)nc2c1,0.902,-2.45
O=C(c1cnc(N2CCN(c3ncccn3)CC2)c2ccccc12)N1CCN(c2ccccn2)CC1,1.04,0.258
CCOC(=O)C(=O)c1csc(NC(=O)c2cccs2)n1,1.11,1.56
# Next part.
SMILES,CBX7 AlphaScr,CBX7 AlphaScr z-score
CCOC(=O)c1cnc2c(C)cc(C)cc2c1Nc1cc(Cl)ccc1OC,1.07,0.655
COc1ccc(NC(=O)CSc2nccn2-c2ccc(Cl)cc2)c(OC)c1,0.488*,-1.81*
COc1ccc(OCC(=O)N2c3ccccc3CCc3ccccc32)cc1,1,0.0269
CN(C)c1nc(-c2ccccc2O)nc2ccccc12,1.05,1.48
CCOc1ccc(-c2nc(CS(=O)(=O)CC(=O)NCc3ccccc3Cl)c(C)o2)cc1,0.981,-0.931
O=C(NC1CCCCC1)c1cn(-c2ccc(Cl)cc2)c(=O)c2ccccc12,0.916,-1.16
COc1ccc(C(=O)Nc2c3c(nn2-c2ccc(Cl)cc2)CS(=O)(=O)C3)cc1OC,0.986,-0.155
Cc1cccc2sc(NC(=O)c3sc4ncn(Cc5cccc(F)c5)c(=O)c4c3C)nc12,1.08,0.547
CCCc1cc(-c2n[nH]c(C)c2-c2ccc(C(=O)OCC)o2)c(O)cc1O,0.904,-2.37
CCOc1ccccc1-c1nc(-c2ccc(NC(=O)Cc3ccc(OC)cc3)cc2)no1,0.983,-0.166
COc1ccc(C2C(C(=O)NCc3ccc(F)cc3)c3ccccc3C(=O)N2C)cc1 (configuration not stated),1.24,2.4
CN1C(=O)C(O)(CC(=O)c2cccs2)c2cc(Br)ccc21 (configuration not stated),0.916,-0.801
C#CC(C)(C)NS(=O)(=O)c1cc(-c2nnc(Nc3cccc(C)c3)c3ccccc23)ccc1C,0.895,-0.491
Cc1nc2cc(-c3ccccc3)nn2c(C)c1CCC(=O)Nc1cccc(C(F)(F)F)c1,1.14,2.8
COc1ccc(-n2c(C)nc3c(cnn3-c3ccc(Cl)cc3)c2=O)cc1Cl,0.871,-1.97
CCn1c(COc2ccc(Cl)cc2)nc2ccccc21,1.04,1.42
CCCCNC(=O)c1ccc2c(c1)N=C(C)c1cc(C)ccc1S2,0.97,-0.625
O=C(CN1C(=O)COc2ccccc21)NCc1ccc2c(c1)OCO2,0.971,-0.669
COCCCn1nnc2c(=O)[nH]c(C(=O)NCc3ccc(F)cc3)nc21,0.972,-0.645
CCN1CCN(Cc2ccc(NC(=O)Nc3ccccc3OC)cc2)CC1,1.11,0.142
O=C(CN1C(=O)COc2ccc(S(=O)(=O)N3CCCC3)cc21)N1CCOCC1,0.993,-0.208
O=C(Nc1ccccc1)Nc1nnc(COc2ccc(F)cc2)s1,1.1,0.36
CC(=O)N1CCc2cc(S(=O)(=O)NC(CC(C)C)C(=O)Nc3ccc(C(C)C)cc3)ccc21 (configuration not stated),1.06,1.09
CCCCNC(=O)C1CCCN(Cc2nc(-c3ccc(CC)cc3)oc2C)C1 (configuration not stated),0.993,-0.192
COc1ccc(Cl)cc1NC(=O)CCc1c(C)nc2ncnn2c1C,1.14,2.7
# Carrying on:
SMILES,CBX7 AlphaScr,CBX7 AlphaScr z-score
O=C(Nc1ccccn1)C1CC(=O)N(c2ccc(Br)cc2)C1 (configuration not stated),0.907,-1.47
CCOc1ccc(-n2nc(C(=O)NCc3ccccc3OC)c3ccccc3c2=O)cc1,0.855,-1.87
O=C(Cc1ccc(NC2=NC3CS(=O)(=O)CC3S2)cc1)NCc1ccccn1 (configuration not stated),0.597,-4.4
Cc1c(Cl)cccc1NC(=O)CC1Nc2ccccc2NC1=O (configuration not stated),0.959,-0.296
CCOc1ccc2nc(N3CCC(C(=O)NCc4cccs4)CC3)sc2c1,0.978,-0.0987
COc1ccc(N2CCN(C(=O)Cc3ccc(-n4c(=O)[nH]c5ccsc5c4=O)cc3)CC2)cc1,1.18,0.855
Cc1cc(C)cc(-n2ccnc2SCC(=O)Nc2c(C)cc(C)cc2C)c1,0.844,-2.38
COc1ccc(Br)cc1CNC(=O)C1CCN(S(C)(=O)=O)CC1,1.04,0.742
CCC(=O)N1CCc2cc(S(=O)(=O)N3CCN(Cc4ccccc4)CC3)ccc21,1.1,0.399
CCOc1ccccc1N(C)C(=O)Cn1nc(Cc2ccncc2)c2ccccc2c1=O,1,0.0591
Cc1ccccc1Cn1c(SCc2ccc(F)cc2)nc2ccncc21,0.968,-0.808
Cc1c(C(=O)NC(C)C)sc2ncn(CC(=O)N3CC(C)CC(C)C3)c(=O)c12 (configuration not stated),1.03,0.9
O=C(CSc1nnc(-c2ccc(Cl)cc2)o1)N1CCN(c2ccccc2)CC1,1.4,0.91
COc1ccc(OC)c2[nH]c(=O)c(CCNC(=O)CC(C)C)cc12,1.01,0.446
Cc1cc(N2CCOCC2)nc2ccc(NC(=O)CCC(=O)N(C)C3CCCCC3)cc12,0.933,-1.5
O=C(NC1CCCCC1)C(c1ccc(Cl)cc1)N1CCC(Cc2ccccc2)CC1 (configuration not stated),0.873,-3.18
COCCN1Cc2cccc(C(=O)Nc3ccc(F)cc3F)c2C1=O,1.21,2.47
O=C(Cc1c[nH]c2ccccc12)N(Cc1ccccc1)C1(C(=O)Nc2ccccc2)CCCCC1,0.909,-1.09
O=C(CC1Sc2ccccc2NC1=O)Nc1ccc2c(c1)OCO2 (configuration not stated),0.889,-0.794
CCN(CC)S(=O)(=O)c1ccc(C(=O)NCCN=C2NS(=O)(=O)c3ccccc32)cc1,1.04,0.449
COc1ccccc1C(=O)N1CC(=O)Nc2ccc(F)cc2C1c1ccc(F)cc1 (configuration not stated),1.03,0.69
CCOC(=O)c1cnc2c(C)cc(Cl)cc2c1Nc1cccc(C(=O)O)c1,0.763,-1.04
COc1cc2c(cc1OC)C(C(=O)NCCCN1CCOCC1)C(c1ccccc1F)N(C)C2=O (configuration not stated),1.09,1.66
CCCC(=O)Nc1cc(-c2nnc(OC)c3ccccc23)ccc1N1CCOCC1,1.01,0.257
Cc1cccc(CSc2nc3ccncc3n2Cc2ccc(Cl)cc2)c1,0.986,-0.206
# Next part:
SMILES,CBX7 AlphaScr,CBX7 AlphaScr z-score
O=C(CSc1nc2ccccc2[nH]1)NCCOc1ccccc1,1,0.116
CCCOc1ccc(CNC(=O)C2CCN(c3nc4ccc(OCC)cc4s3)CC2)cc1,0.991,-0.327
CC(=O)N1CCC(N(C(=O)Nc2ccccc2)C2CCCC2)CC1,1.05,2.63
CC1CCCCN1CCCN1C(=O)c2ccccc2C1C(=O)NC1CCCCC1 (configuration not stated),1.1,0.738
CCOCCCNC(=O)c1cn(CC(C)C)c(=O)c2cc(OC)c(OC)cc12,1.04,0.0374
C=CCN1C(=O)c2ccccc2Sc2ccc(C(=O)NC3CC3)cc21,1.1,0.375
CC1Cc2ccccc2N1C(=O)CN(C)S(=O)(=O)c1ccc2c(c1)n(C)c(=O)c(=O)n2C (configuration not stated),1.07,2.72

# These rows are one share of the data (hit frequency here may not be typical).
